TAR Tat displ = HIV-1 TAR-Tat binding disruption; HIV-1 TAR RNA, Tat peptide displacement FRET; hits give high values; 100,000 compounds, 0.6% hits; z-score (concentration not given with the values);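 note: score is relative to mean and SD of negative controls; some compounds called inactive have numbers as strong as hits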
CDC25B-CDK2 inh = human CDC25B-CDK2/CyclinA binding inhibition. HTRF CDC25B-CDK2/CyclinA binding, anti-His/anti-Flag; hits give high values. z-score (concentration not given with the values). 94,000 compounds, 0.72% hits. AID 1259370;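 note: score is relative to mean and SD of negative controls; strong numbers were not always called active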
The depositor's hits bear a star; x = not tested or not shown.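 Rule for the calls: active = z-score from 3 up in half or more of its runs; inactive = the rest.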

SMILES	TAR Tat displ	CDC25B-CDK2 inh
CCOC(=O)C1=C(C)Nc2nc(SCc3cccnc3)nn2C1c1cccc(Br)c1 (stereo unspecified)	2	0.58
O=C(O)CCN1C(=O)C2CCCCC2C1=O (stereo unspecified)	x	-0.52
CCN(CC)CCNC(=O)c1cc2n(n1)CC(C)(C(=O)NC1CCCCC1)N(C)C2=O (stereo unspecified)	0.47	x
Fc1ccc(-c2nsc3c(N4CCOCC4)ncnc23)cc1	0.86	-3.3
O=C(OCc1cc(=O)n2c(-c3ccccc3)csc2n1)c1ccc(Cl)cc1	-1.6	x
COC(=O)c1c(NC(=O)CCCC(=O)O)sc2c1CCC(C)C2 (stereo unspecified)	0.02	-0.68
Cc1ccc(C(=O)CSC(=S)SC(C)(C)C)cc1	x	0.41
COc1ccc(-c2nnc(SCCOc3cccc(C)c3)o2)cc1	2	-0.75
COc1ccc(OC)c(S(=O)(=O)Nc2cccc(N3CCCS3(=O)=O)c2)c1	-0.13	x
O=S(=O)(Nc1c(F)cccc1F)c1ccc2c(c1)OCCO2	-0.42	-1.8
COc1ccc(-c2cnc(C)o2)cc1S(=O)(=O)Nc1ccc(Br)cc1F	0.98	x
CC1CCC(NC(=O)C2(C)Cn3c(cc4sccc43)C(=O)N2Cc2ccccn2)CC1 (stereo unspecified)	1.9	-1.7
CN(CC(=O)N1CCCCC1)S(=O)(=O)c1ccc2c(c1)CCCC(=O)N2	-0.02	x
CC(C)(C)C1CCc2c(sc3nc(CCC(=O)N4CCN(c5ccccc5F)CC4)[nH]c(=O)c23)C1 (stereo unspecified)	-1.2	x
O=C(O)CCS(=O)CCC(=O)O	-0.32	-0.33
COc1cccc(-n2c(N)c(C(=O)Nc3ccccc3F)sc2=S)c1	0.72	x
O=S(=O)(c1ccc(Cl)cc1)N1CCCN(c2nc3ccc(Cl)cc3s2)CC1	x	-0.4
CS(=O)(=O)N1CCCN(Cc2nc3cc(Cl)ccc3o2)CC1	-1	x
CCOC(=O)C1=C(C)NC2=C(C(=O)C(C(=O)OC)C(C)C2)C1c1ccc(N(C)C)cc1 (stereo unspecified)	0.06	-0.99
O=S(=O)(c1ccccc1)N1CCC(Oc2ccc(-n3cnnn3)cc2)CC1	0.98	0.62
O=c1c(=S)[nH]ccn1-c1cccc(F)c1	-0.04	-0.84
CC(C)c1nc2n[nH]c(N)c2c2c1COC(C)(C)C2	2	-1.1
CCc1cc2c3c([nH]c2cc1S(=O)(=O)N1c2ccccc2CC1C)CCCC3=O (stereo unspecified)	1.7	x
O=C(Cn1cc2c(n1)CCCC2)NC1CC1	x	-0.91
COc1ccc(-c2nnc(SCC(O)C(F)(F)F)n2-c2cccc(OC)c2)cc1 (stereo unspecified)	x	-0.14
O=C(c1ccccc1)c1cn(Cc2ccccc2F)c2cc3c(cc2c1=O)OCO3	1.5	-0.52
O=C(NCc1ccco1)c1c(O)nc2ccccn2c1=O	0	0.05
Cc1ccc2c(c1)-c1c(sn(-c3ccc(C)c(Cl)c3)c1=S)C(C)(C)N2C	x	-1.1
Cc1cc(C)nc(N2N=C(C(F)(F)F)CC2=O)n1	2.7	1.7
O=C1c2ccccc2-c2nnc(-c3ccc(Cl)cc3Cl)cc21	x	-0.42
CCCOc1ccc(-c2cccc(NS(=O)(=O)c3ccc(C)cc3)c2)nn1	0.81	x
O=C(COC(=O)CCCC1=NS(=O)(=O)c2ccccc2N1)Nc1ccc(F)c(Cl)c1	5.9	x
Cc1cc(S(N)(=O)=O)c(Cl)cc1Cl	x	-1.6
O=C(O)CCc1nnc2n(Cc3ccccc3Cl)c(=O)c3ccccc3n12	-0.25	-0.97
CNC(=O)C1CCCN(c2nnc(-n3cccc3)s2)C1 (stereo unspecified)	-1	-0.84
Cc1ccc(CC2CC(=O)N(c3nc(C)cc(C)n3)C2=O)cc1 (stereo unspecified)	0.29	-0.93
CCN(Cc1ccccc1)C(=O)[C@H]1[C@@H]2C[C@@H]3[C@H]1C(=O)O[C@@H]3C2	0.93	0.12
CCOC(=O)C(=O)Nc1cc(C)on1	0.6	-3.2
COc1ccc(OC)c(S(=O)(=O)N(CCS(=O)(=O)N2CCNCC2)C2CCCC2)c1	-0.86	x
N#C/C(=C\c1csc([N+](=O)[O-])c1)S(=O)(=O)c1ccc(Cl)cc1	x	0.5
CCC(C)NC(=O)C1CCN(c2nn3c(=O)cc(C)nc3s2)CC1 (stereo unspecified)	0.19	0.44
N#Cc1cccn1-c1ccc(Br)cc1F	0.94	-0.87
Cn1cc(Cl)c(-c2nc(-c3ccc(Cl)cc3)cs2)n1	x	0.36
O=C(O)Cn1nc(-c2ccccc2)cc1-c1ccccc1	x	-0.74
Cc1cc(NC(=O)Nc2nnc(N3CCCC(C)C3)s2)ccc1Br (stereo unspecified)	0.93	-1.2
O=C1COc2cc(-c3c(Nc4cccc(Cl)c4)c(=O)c3=O)ccc2N1	1.3	x
FC(F)(F)COc1ccc(OCC(F)(F)F)c(-c2ccn[nH]2)c1	x	-0.38
CC(C)Sc1cc(C#N)c2cc(Br)ccc2n1	x	-1.8
O=C(c1cccc(C(=O)N2CCc3ccccc32)c1)N1CCc2ccccc21	-0.11	0.39
Cc1c(C)n(-c2ccc(F)cc2)c2ncnc(Cl)c12	0.55	-1.6
CN(C)c1ccc(NC(=O)CSc2nc3ccncc3[nH]2)cc1	-1.3	-3.7
N#C/C(=C\c1ccccc1)c1nc2ccccc2[nH]1	x	-2.4
CCn1nccc1C1CCCN1C(=O)Nc1ccccc1 (stereo unspecified)	2.1	-1.9
CC(C)Nc1nc(N2CCCC2)nc2c1cnn2C	1.5	x
O=C(CCc1nc(-c2ccccn2)no1)Nc1ccccc1F	-0.12	-1.1
CC(=O)O[C@H]1C[C@@H](OC(C)=O)C(C)(C)C2CC(=O)[C@]3(C)C(CC[C@@]4(C)[C@H](c5ccoc5)OC(=O)[C@H]5O[C@]543)[C@]21C (stereo partly specified)	0.35	x
CC(C)CCNc1nc2ccc(C(=O)c3ccccc3)cc2n2cnnc12	0.28	x
CO/N=C1\CC(C)(C)Cc2c(-c3ccn(C(C)=O)n3)sc(SC)c21	x	0.44
O=[N+]([O-])c1cc(/C=N/Nc2ccccn2)cs1	x	-1.6
COc1ccc(CNc2sc(S(C)(=O)=O)nc2S(=O)(=O)c2ccc(Cl)cc2)cc1	-1.7	0.23
The listing continues.
SMILES	TAR Tat displ	CDC25B-CDK2 inh
Cc1cc(C)c2c(-c3ccccc3)nn(-c3ccccc3)c2n1	1.1	-1.1
CC1Cc2cc(S(=O)(=O)N3CCCC(C(=O)Nc4nccs4)C3)ccc2N1C(=O)C1CC1 (stereo unspecified)	-0.07	x
CC(C)(C)C(=O)CN1C(=O)C(=O)c2cc(Br)ccc21	1.3	x
CC1CCCCC1Nc1nc2ccc(Cl)cc2n2cnnc12 (stereo unspecified)	1.4	-0.91
CCc1ccc(-n2[nH]c3c(c2=O)Cc2cc(Cl)ccc2O3)cc1	-1	-2.3
CCCCN(Cc1ccco1)C(=O)c1c2c(nc3ccccc13)C(=O)N(C1CCCCC1)C2	0.11	x
O=c1[nH]c(Nc2ccc3c(c2)OCO3)nnc1Cc1ccc(Cl)cc1	-0.78	-2.4
COc1ccc(O)c(C2Oc3ccccc3C3CC(c4cccs4)=NN32)c1 (stereo unspecified)	x	-1.1
O=C(Cn1ncc2c1-c1ccccc1OC2)N1CCN(c2cccc(Cl)c2)CC1	0.11	-1.2
Cc1ccc2c(c1)C(Cc1nc3ccccc3c(=O)n1Cc1ccccc1)C(=O)N2C(C)C (stereo unspecified)	1	0.97
CCCCN1C(=O)/C(=C2/C(=O)N(CCC)c3ccccc32)SC1=S	x	-2.1
CC1=C(C(=O)OCc2ccccc2)C(c2ccc(C)cc2)NC(=O)N1 (stereo unspecified)	x	0.59
CC(C)(C)C1CCc2c(sc(NC(=O)Cn3cnc([N+](=O)[O-])n3)c2C#N)C1 (stereo unspecified)	1.6	-0.95
CCOc1cccc(C2c3c(-c4ccccc4O)n[nH]c3C(=O)N2CCCOC(C)C)c1 (stereo unspecified)	0.13	-2.5
CCOC(=O)c1nc2c3nsnc3ccc2n(C)c1=O	-0.76	-0.67
CCS(=O)(=O)N1N=C(c2ccc(NS(C)(=O)=O)cc2)CC1c1ccc(C)cc1 (stereo unspecified)	x	0.4
COc1cc(-c2nc(-c3ccccn3)no2)cc(OC)c1OC	x	-0.14
COc1cc(C(=O)OC(c2ccc3c(c2)OCO3)c2nccc3ccccc23)cc(OC)c1OC (stereo unspecified)	x	-2.2
CNC(=S)NNC(=O)Cn1nc(C)c(Br)c1C	x	-1.8
COc1ccc(C2c3c(oc4cc(C)c(C)cc4c3=O)C(=O)N2c2nccs2)cc1OC (stereo unspecified)	-0.15	-0.43

An excerpt from above in order of SMILES length, rising.
SMILES	TAR Tat displ	CDC25B-CDK2 inh
O=C(O)Cn1nc(-c2ccccc2)cc1-c1ccccc1	x	-0.74
CCS(=O)(=O)N1N=C(c2ccc(NS(C)(=O)=O)cc2)CC1c1ccc(C)cc1 (stereo unspecified)	x	0.4
CCN(Cc1ccccc1)C(=O)[C@H]1[C@@H]2C[C@@H]3[C@H]1C(=O)O[C@@H]3C2	0.93	0.12

Next section:
SMILES	TAR Tat displ	CDC25B-CDK2 inh
CCn1ncc(C2=NOC(C(=O)Nc3cc(OC)c(Cl)cc3OC)C2)c1C (stereo unspecified)	1.9	-1.6
COc1ccc(-n2nnc(-c3nc(-c4cccnc4)no3)c2N)cc1	0.23	x
CC1CCN(C(=O)CN2CCSc3ccccc32)CC1	1.3	x
CS/C(NCc1cccs1)=C(\C#N)S(=O)(=O)c1ccc(Cl)cc1	x	-2.7
CCS(=O)(=O)c1ccc(-c2cccc(NS(=O)(=O)c3cc(OC)ccc3OC)c2)nn1	-0.33	x
CCc1cc2c(C)cc(=O)oc2cc1OCC(=O)Nc1cccc(C)c1	x	-1.5
O=C(Nc1ccc(Cl)cc1)N1CCCC(CN2CCc3ccccc3C2)C1 (stereo unspecified)	-1.8	x
CCc1nn2c(=O)cc(COC(=O)c3ccccc3Br)nc2s1	0.47	x
COc1ccc(-c2n[nH]c(=S)n2Cc2ccccc2)cc1	x	-0.84
Cc1ccccc1CN1C(=O)C(O)(CC(=O)c2cccc(Br)c2)c2ccccc21 (stereo unspecified)	x	2.5
O=C(NCc1ccccc1Br)c1cnc2sccn2c1=O	2.6	x
O=S(=O)(c1ccc(Cl)c2ccccc12)N1CCN(c2ccc(F)cc2)CC1	x	-0.18
O=C(O)CCc1nc2ccc(C(=O)O)cc2[nH]1	0.63	0.54
COc1ccccc1-c1nc(-c2ccc(-c3ccc(C)cc3)nc2OC)no1	-4.2	1.1
O=C1CCCCC1C1(O)C(=O)Nc2ccc(Br)cc21 (stereo unspecified)	-0.53	0.03
CCN1CCN(CCNC(=O)Cn2c(=O)c3cccn3c3ccc(F)cc32)CC1	1.5	x
N=C1C(c2nc3ccccc3[nH]2)=C(O)CN1c1ccccc1Br	0.54	-1.9
O=c1c2cc(Br)ccc2[nH]c(=S)n1CCC1=CCCCC1	x	-1
O=C(CSc1nc2ccccc2o1)Nc1ccc(F)cc1	x	-0.62
O=c1c(NCc2ccccc2Cl)c(-c2ccc3c(c2)CCCC3)c1=O	1.9	x

15 compounds already listed, ordered by molar mass, highest first:
SMILES	TAR Tat displ	CDC25B-CDK2 inh
CCS(=O)(=O)c1ccc(-c2cccc(NS(=O)(=O)c3cc(OC)ccc3OC)c2)nn1	-0.33	x
Cc1ccccc1CN1C(=O)C(O)(CC(=O)c2cccc(Br)c2)c2ccccc21 (stereo unspecified)	x	2.5
CCN1CCN(CCNC(=O)Cn2c(=O)c3cccn3c3ccc(F)cc32)CC1	1.5	x
CCc1nn2c(=O)cc(COC(=O)c3ccccc3Br)nc2s1	0.47	x
CCn1ncc(C2=NOC(C(=O)Nc3cc(OC)c(Cl)cc3OC)C2)c1C (stereo unspecified)	1.9	-1.6
CS/C(NCc1cccs1)=C(\C#N)S(=O)(=O)c1ccc(Cl)cc1	x	-2.7
O=C(Nc1ccc(Cl)cc1)N1CCCC(CN2CCc3ccccc3C2)C1 (stereo unspecified)	-1.8	x
N=C1C(c2nc3ccccc3[nH]2)=C(O)CN1c1ccccc1Br	0.54	-1.9
O=c1c2cc(Br)ccc2[nH]c(=S)n1CCC1=CCCCC1	x	-1
O=C(NCc1ccccc1Br)c1cnc2sccn2c1=O	2.6	x
O=c1c(NCc2ccccc2Cl)c(-c2ccc3c(c2)CCCC3)c1=O	1.9	x
COc1ccc(-n2nnc(-c3nc(-c4cccnc4)no3)c2N)cc1	0.23	x
O=C1CCCCC1C1(O)C(=O)Nc2ccc(Br)cc21 (stereo unspecified)	-0.53	0.03
COc1ccc(-c2n[nH]c(=S)n2Cc2ccccc2)cc1	x	-0.84
CC1CCN(C(=O)CN2CCSc3ccccc32)CC1	1.3	x

Continuation:
SMILES	TAR Tat displ	CDC25B-CDK2 inh
OCc1cnc(SCc2cccc(F)c2)n1Cc1ccccc1	0.44	x
O=C1c2ccccc2C(=O)C1(Nc1ccc(F)cc1F)c1ccccc1	-0.27	x
Cc1cc(SCC(=O)c2ccc(C(C)C)cc2)nc(C)n1	0.47	0.43
O=C(NCc1cc(F)cc2c1OCOC2)c1ccc(-c2ccccn2)s1	x	0.86
Cc1c(C(=O)O)oc2c1-c1nn(Cc3ccc(Cl)cc3)cc1CC2	-3.7	-0.84
N#CC(C#N)=NNc1ccc(F)cc1F	x	-1.2
Cc1cccc(OCc2ccc(-c3nc(C#N)c(NCc4ccc5c(c4)OCO5)o3)o2)c1	-1.4	-1.1
N#C/C(=C\Nc1ccccn1)S(=O)(=O)Cc1ccco1	x	-1.2
O=C(Nc1nccs1)C1CC1(c1ccccc1)c1ccccc1 (stereo unspecified)	-0.61	0.9
COc1ccc(-c2nnc3c4c(cnn23)nnn4-c2ccc(Cl)cc2)cc1	0.61	-1.1
Oc1cc(OCc2ccccc2)ccc1-c1[nH]ncc1-c1ccccc1	1.6	-1.7
CCSC1=C(C#N)C(c2ccc(O)cc2)CC(=O)N1 (stereo unspecified)	0.39	-0.64
CC(C)c1ccc2occ(CC(=O)Nc3sc4c(c3C(=O)NCc3cccnc3)CCC4)c2c1	-0.76	1.6
O=C1CS(=O)(=O)N(Cc2ccccc2F)c2cc(Cl)ccc21	0.12	-0.52
CCCN(CCC)C(=O)Cn1c(=O)oc2ccccc21	0.24	x
